# Screening data (PubChem BioAssay)
# Sfp inh – qHTS Assay for Inhibitors of Bacillus subtilis Sfp phosphopantetheinyl transferase (PPTase); Biochemical Sfp PPTase activity, qHTS; 4'-phosphopantetheinyl transferase ffp (Bacillus subtilis), Q9F4F7; 310,000 tested, 3.5% active; Potency, µM, inactives show max response, negative = inhibition, actives largely listed as inhibitors; active = well fitted inhibition curve with a large enough effect; inconclusive = small, poorly fitted or top-dose-only effect, or another doubt; inactive = no such curve, though single readings can be large or run the other way;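 note: the enzyme is Sfp with the accession as filed and its product quenches rhodamine fluorescence; potency is the fitted concentration of half-maximal effect; 0% = enzyme reaction without inhibitor and -100% = no enzyme wells; top concentration of the series not given in the record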
#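 Fluorescence-quenching assay with 15 nM Sfp, 5 uM rhodamine-CoA and 12.5 uM BHQ-2-labelled ybbR peptide in pH 7.6 Hepes/MgCl2 buffer. Enzyme was pre-incubated with compound for 15 min at room temperature. Rate was taken from the 30-min fluorescence change (525/598 nm).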
# D2 PAM – Beta-Arrestin HTS for Positive Allosteric Modulators of the Human D2 Dopamine Receptor: Potentiators. DiscoveRx D2 beta-arrestin cells, luminescence, 90 min; 100% = 57 uM dopamine signal. potentiation, % (no concentration beside the values). D(2) dopamine receptor (Homo sapiens), P14416. AID 624464, 2012. 360,000 tested, 0.23% active; active = potentiation of 50% or more; inconclusive = 30% to 50%; inactive = 30% or less;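 note: compound concentration not given in the record; tested on top of an EC20 dose of dopamine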
#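 PathHunter D2 cells, attached overnight at 37 deg C, received compound in DMSO plus dopamine at EC20 (50 nM final) for 90 min at 37 deg C. Beta-arrestin recruitment was read as luminescence after 1 h with detection reagent at ambient temperature.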
# Six1-Eya2 inh – qHTS Assay for Inhibitors of the Six1/Eya2 Interaction. Homeobox protein SIX1 (Homo sapiens) + Protein phosphatase EYA2 (Homo sapiens), …. AlphaScreen GST-Six1/His-Eya2 binding, biochemical; active compounds read low; control for the full effect not named in the record. activity change, % (no concentration beside the values). 360,000 tested, 0.56% active; in the data active = activity change below about -65%; inconclusive = about -30% to -65%; inactive = above about -30%; note: % is set by controls: 0 for no effect and ±100 for the full control effect
# Target sequence (O00167 whole entry, looked up): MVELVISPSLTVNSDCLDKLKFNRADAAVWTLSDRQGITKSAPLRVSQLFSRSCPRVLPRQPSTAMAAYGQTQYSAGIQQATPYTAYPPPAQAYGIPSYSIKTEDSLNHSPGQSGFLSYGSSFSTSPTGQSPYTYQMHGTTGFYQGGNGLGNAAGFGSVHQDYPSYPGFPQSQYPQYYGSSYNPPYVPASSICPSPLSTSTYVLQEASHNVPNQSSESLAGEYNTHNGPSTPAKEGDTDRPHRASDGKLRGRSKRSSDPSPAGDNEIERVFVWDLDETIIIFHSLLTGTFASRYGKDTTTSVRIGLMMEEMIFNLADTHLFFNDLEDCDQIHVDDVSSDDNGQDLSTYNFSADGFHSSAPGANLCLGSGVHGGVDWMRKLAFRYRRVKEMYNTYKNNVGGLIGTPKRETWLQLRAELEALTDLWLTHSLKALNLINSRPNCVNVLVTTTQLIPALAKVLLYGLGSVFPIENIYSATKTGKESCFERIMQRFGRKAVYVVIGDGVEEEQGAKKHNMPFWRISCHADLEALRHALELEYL
# Target sequence (Q15475 whole entry, looked up): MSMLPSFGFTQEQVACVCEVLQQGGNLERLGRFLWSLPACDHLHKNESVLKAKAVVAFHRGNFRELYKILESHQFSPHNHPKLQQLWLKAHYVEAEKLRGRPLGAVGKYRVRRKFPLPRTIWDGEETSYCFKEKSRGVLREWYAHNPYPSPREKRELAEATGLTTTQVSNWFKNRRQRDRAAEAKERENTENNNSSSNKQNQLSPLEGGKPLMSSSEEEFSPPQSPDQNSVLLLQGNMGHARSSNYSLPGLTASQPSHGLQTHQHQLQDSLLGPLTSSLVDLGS
#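 GST-Six1 + His-Eya2 (5X stock: 250/500 nM); Tris pH 8.0, 300 mM NaCl, 0.05% BSA, 0.02% Tween 20; GSH donor/Ni acceptor beads; 1 h 37 °C dark; AlphaScreen readout.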
# PINK1 expr mod – A Quantitative High throughput Screen to Identify Chemical Modulators of PINK1 Expression; PINK1 immunofluorescence, high-content cytometry, 24 h; 410,000 tested, 0.2% active; AID 624263, 2012; Potency, µM (top dose mostly 76.6 µM), inactives show at the top dose activation (PINK1 increase), usual class: activators; active = well fitted activation curve with a large enough effect; inconclusive = small, poorly fitted or top-dose-only effect; inactive = flat fitted curve, though single readings scatter; cell line not stated here;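 note: potency is the fitted concentration of half-maximal effect; % of control where 0% means no effect; nearly all actives have a fitted effect of over 65% in size; a mitochondrial uncoupler was the plate control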
#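 Cells are seeded, rested 12 hours, then given compound at five concentrations or DMSO for 24 hours. After fixation, blocking and antibody staining, PINK1 amount and mitochondrial localization are scored; CCCP serves as control.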
# TRPV1 potentiator – HTS Assay for Compounds that Act as Potentiators of the Vanilloid Receptor 1; AID 540277, 2011; potentiation, % at 8.33 µM; 320,000 tested, 0.02% active; TRPV1-expressing cells, Fluo-8 calcium influx, capsaicin EC20 potentiation; host cell line not named in the record; control for the full effect not named in the record; Transient receptor potential cation channel subfamily V member 1 (Homo sapiens), Q8NER1; active means potentiation above 80%; inconclusive means 30% to 80%; inactive means below 30%; note: 0% is about no effect
#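 TRPV1-expressing cells were cultured overnight at 35.5C and loaded with Fluo-8 calcium dye for 40 to 90 min at room temperature. After a 10 s baseline, compound was added and calcium influx was read kinetically for 3 min (ex 480/em 520 nm).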
# D2 ag – Beta-Arrestin HTS for Positive Allosteric Modulators of the Human D2 Dopamine Receptor: Agonists; D(2) dopamine receptor (Homo sapiens), P14416; DiscoveRx PathHunter D2 beta-arrestin, luminescence, 90 min; 100% = 57 uM dopamine signal; activation, % (test concentration not listed); 360,000 tested, 0.084% active; AID 624465, 2012; in the data active = activation above about 40%; inconclusive = about 15% to 40%; inactive = below about 15%; note: compound concentration not given in the record; the text of the record calls up to 30% inactive
#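 Agonist mode: compounds alone added to overnight-plated D2 PathHunter cells for 90 min at 37 C, with 57 uM final dopamine (EC100) defining full response. Beta-arrestin recruitment detected by chemiluminescent reagent, read after 1 h at ambient temperature.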
# CtBP-E1A inh – qHTS Assay for Inhibitors of the CtBP/E1A Interaction. CtBP / adenovirus E1A interaction (AlphaScreen). AlphaScreen GST-E1A/His-CtBP binding, 1536-well; active compounds read low; control for the full effect not named in the record. activity change, % (concentration not given with the values). 340,000 tested, 0.49% active. AID 651724, 2012; in the data active means activity change below about -65%; inconclusive means about -30% to -65%; inactive means above about -30%; note: % is set by controls: 0 for no effect and ±100 for the full control effect
#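 GST-E1A and His-tagged CtBP (125 nM each as 5X stock) were preincubated with pin-transferred compound for 2 h at 37 °C in the dark, then glutathione donor and nickel acceptor beads were added for 1 h before AlphaScreen reading.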
# Starred values were filed as active, the others as inactive; ? = inconclusive; . = not tested or not shown; [ ] = remark or other dose. Hits appear at their usual frequency; any-hit rate near 3.7%.
SMILES,Sfp inh,D2 PAM,Six1-Eya2 inh,PINK1 expr mod,TRPV1 potentiator,D2 ag,CtBP-E1A inh
CCCOP(=O)(c1ccc(N(C)C)cc1)C(O)c1cc(OC)ccc1OC (centres undefined),27.0%,-3.9,-2.3,-0.6%,-7.1,0.6,.
COc1cccc(NC(=O)CN(C)CC(=O)Nc2ccc(Br)cc2)c1,8.6%,-4.0,0.5,1.6%,5.5,-0.3,3.3
COC(=O)c1ccc(COc2cc([N+](=O)[O-])cc3cccnc23)cc1,1.2%,2.7,8.0,0.0%,3.7,2.7,0.0
COc1ccccc1C1=NOC(COC(=O)c2ccc(Br)cc2)C1 (centres undefined),-7.9%,-0.5,9.1,-0.1%,-2.5,-1.6,0.9
Cc1nn(-c2ccccc2)c(C)c1C(=O)OCC(=O)N(C)c1ccccc1,.,-2.7,3.5,-2.3%,26.9,-5.6,-2.3
O=C(Nc1ccccc1)N(CCN1CCOCC1)Cc1ccccc1F,20.0%,-14.9,0.4,-0.9%,-10.6,-2.9,3.3
Cc1ccc(C)c(Sc2ccc(S(=O)(=O)Nc3ccc(C(=O)O)cc3)cc2)c1,.,10.0,-3.6,2.5%,12.8,-1.7,.
COC(=O)c1cc[n+](CC(=O)c2ccccc2)cc1,18.8%,-7.8,8.0,-0.2%,0.4,-0.2,8.7
CN1CCN(/N=C/c2nc(-c3ccccc3Cl)n3ccccc23)CC1,14.1%,-26.7,1.8,-2.5%,-1.4,-1.6,14.9
Cc1cc(C)c2cc(CN(CCO)C(=O)Nc3ccc(F)cc3)c(=O)[nH]c2c1,7.5%,21.2,4.3,-0.1%,26.5,-1.3,-1.3
Cc1ccnc(NC(=O)c2ccc3c(c2)C(=O)N(CC2CCCO2)C3=O)c1 (centres undefined),0.7%,-34.1,6.7,-0.7%,-7.1,-4.4,.
Cc1ccc(NC2=C/C(=N/S(=O)(=O)c3cccs3)c3ccccc3C2=O)cc1C,17.5%,76.4*,-5.9,17.2%,-3.6,?,-14.7
CCN(CC)S(=O)(=O)c1ccc(-c2nnc(SCC(=O)N3c4ccccc4CC3C)n2CC)cc1 (centres undefined),9.5%,-14.7,0.5,-1.5%,4.0,-2.3,-5.2
COc1cccc(NC(=O)CN(C)C(=O)CSC(=S)N2CCCC2)c1,.,1.9,3.7,-4.9%,-3.6,-3.7,-8.3
C(=Nn1cnnc1)c1ccc2c(c1)CCC2,.,-10.0,-3.5,-0.5%,.,-4.9,2.0
CCOc1ccc(Nc2c3ccccc3nc3ccccc23)cc1,-11.9%,-26.9,-28.9,-1.4%,3.5,-1.3,?
O=S(=O)(NCCc1ccncc1)c1cc(Br)ccc1F,12.6%,-16.1,4.3,2.1%,-3.2,1.2,-3.4
Cc1cc(C(C#N)c2ccccc2)n2ncnc2n1 (centres undefined),10.1%,-16.6,-1.8,1.1%,2.4,-5.8,-1.5
COc1ccc(OCC(=O)Nc2ccc(S(=O)(=O)N(C)c3ccccc3)cc2)cc1,4.8%,-17.5,-3.8,0.0%,-2.0,-0.7,0.0
CN(Cc1cnn(-c2ccc(F)cc2)c1)C(=O)[C@H]1O[C@@H](n2cnc3c(N)ncnc32)[C@H](O)[C@@H]1O,.,-7.0,2.4,4.1%,.,-3.0,2.3
O=C(COC(=O)c1ccccc1)c1ccc2c(c1)OCCO2,.,-6.1,5.7,-2.9%,3.8,-3.8,-1.8
C/C(=N/Nc1nc(-c2ccccc2F)nc2ccccc12)c1ccccc1O,-29.3%,-20.8,-2.4,10.3%,0.4,-1.5,-0.9
CCc1ccc(NC(=O)C(=O)NNC(=O)c2cccc(OC)c2)cc1,14.9%,0.4,6.0,-1.1%,8.4,3.2,7.4
Cc1cc(C)nc(N=Nc2c(O)n(Cc3ccc(Cl)cc3)c3ccccc23)n1,-2.1%,-10.1,2.7,3.3%,13.9,-4.2,3.3
COc1ccc(CN2CCC(N3CC(C)OC(C)C3)CC2)c(OC)c1OC (centres undefined),56.2µM*,-1.9,0.4,1.4%,8.4,-4.5,5.7

# New compounds follow:
SMILES,Sfp inh,D2 PAM,Six1-Eya2 inh,PINK1 expr mod,TRPV1 potentiator,D2 ag,CtBP-E1A inh
O=C(NC(=O)c1ccccc1F)OCc1ccc(Cl)cc1Cl,17.7%,-4.7,-0.5,0.6%,-13.5,-3.0,4.3
CC1CCCC(C)N1C(=O)c1ccc(S(=O)(=O)NCc2ccco2)cc1 (centres undefined),-2.1%,-6.2,-0.8,-0.3%,-28.4,-0.3,0.8
O=C(C=Cc1ccccn1)c1ccccc1O,.,-3.3,2.2,?,.,-2.1,4.9
Cc1ccccc1-c1nnnn1C1CCS(=O)(=O)C1 (centres undefined),-7.3%,-0.1,25.1,1.6%,8.0,-1.5,0.5
CC1(C(=O)NS(=O)(=O)c2ccc(F)cc2F)CCN1C(=O)c1ccccc1 (centres undefined),.,-7.7,9.1,2.4%,.,-4.1,2.2
Cc1ncc(C(=O)Nc2ccccc2)[nH]1,.,-3.2,-5.5,-0.7%,.,1.8,1.7
CC(=O)c1ccccc1NC(=O)C1CCCN(C(=O)c2ccc(Cl)cc2)C1 (centres undefined),.,-2.3,20.1,0.0%,11.4,-2.4,0.0
Cc1ccc(-c2nn(Cc3ccccc3)cc2/C=C/C(=O)O)cc1,-9.6%,1.1,8.8,1.2%,7.8,-3.8,-1.6
C/C(=N/NC(=O)c1cc(C)[nH]n1)c1ccncc1,1.2%,-6.7,-1.3,-1.8%,4.5,-4.2,-3.2
O=C(c1cc(-c2ccccc2)n[nH]1)N1CCc2c([nH]c3ccccc23)C1c1ccccn1 (centres undefined),7.4%,-17.9,-18.4,-0.6%,13.4,3.9,-11.0
CCOc1ccccc1CN1CCN(C2CCSCC2)CC1CCO (centres undefined),7.2%,-13.7,1.3,-1.8%,-2.8,-2.8,0.4
CCOC(=O)C(CCCCCOc1ccccc1[N+](=O)[O-])C(=O)OCC,1.9%,-20.6,48.5,-0.3%,-10.5,-1.6,28.6
COCCCNC(=S)Nc1ccc(C)cc1[N+](=O)[O-],-13.2%,-28.5,4.0,0.7%,2.6,-17.5,1.9
CC1(Cc2ccc(Cl)cc2)C(=O)Nc2ccc(S(=O)(=O)NC3CCCCC3)cc21 (centres undefined),.,2.2,-3.2,-0.2%,.,4.7,-4.1
O=C(O)C1CCN(c2ncccn2)CC1,23.5%,-8.6,2.0,0.6%,-4.6,-1.4,8.1
CC(=O)CSc1ccc(-c2nc3ccccc3[nH]2)cn1,-4.9%,19.1,-1.0,1.5%,10.7,7.3,6.1
CCOC(=O)C1(Cc2ccccc2C(F)(F)F)CCN(C(C)CSC)CC1 (centres undefined),9.1%,-15.8,-2.6,4.9%,-12.7,-2.2,.
COc1ccc(CCNC(=O)C2CCCN(c3ncnc4c3nc3n4CCCCC3)C2)c(OC)c1 (centres undefined),10.8%,-4.9,1.6,-1.6%,-12.4,3.8,-1.9
COc1ccc(S(=O)(=O)Nc2cccc3c2O[C@H](CN(C)S(=O)(=O)c2cccs2)[C@@H](C)CN([C@H](C)CO)C3=O)cc1,.,-6.4,19.4,-0.3%,.,2.0,0.0
CCOC(=O)C1(CCOc2ccccc2)CCN(Cc2ccc(-n3cccn3)cc2)CC1,3.8%,-1.3,-7.0,1.1%,-0.4,-4.0,.
O=C(CSc1ccccc1)Nc1nnc(-c2ccco2)o1,.,-3.3,?,0.3%,4.2,-1.2,?
Cc1ccccc1C(=O)c1cccn1CC(=O)NCCC1=CCCCC1,-0.8%,-6.0,1.1,3.0%,-30.4,-1.8,0.9
O=C(NCc1ccc(F)cc1)C1CCCN1C(=O)Nc1cccc(F)c1 (centres undefined),13.6%,-5.3,2.7,-1.9%,1.0,-0.2,.
CCOc1ccccc1-n1nnnc1SCC(=O)O,10.8%,4.0,4.2,0.0%,-2.5,-0.3,7.5
CCOc1ccccc1NC(=O)CSc1nc(=O)n(CCCN2CCOCC2)c2c1CCCC2,.,-29.2,-1.4,-1.0%,-0.7,-5.4,5.8

# (next part)
SMILES,Sfp inh,D2 PAM,Six1-Eya2 inh,PINK1 expr mod,TRPV1 potentiator,D2 ag,CtBP-E1A inh
Cc1ccc2nc(-c3ccc(NC(=O)CN4CCN(C(=O)c5ccco5)CC4)cc3)sc2c1,-27.4%,?,-20.7,.,5.1,?,-1.0
O=C(CSc1ncccn1)n1c2c(c3ccccc31)CCCC2,?,-13.8,-0.9,-0.8%[38.3 µM],19.5,-2.6,2.1
COc1cccc(N2CCN(C(=O)/C=C/c3ccco3)CC2)c1,8.91µM*,-1.5,-9.9,-0.2%,-5.5,-0.7,-20.1
O=S(=O)(c1ccccc1)N1CCN(S(=O)(=O)c2ccccc2)C1,-15.3%,-20.1,4.7,-0.7%,1.4,0.4,3.3
O=C(CSc1ccccc1F)NCC1(N2CCCCC2)CCCCC1,.,-0.7,23.9,0.1%,-15.6,-4.3,9.0
COc1cc(C(=O)N2CCN(Cc3ccccn3)CC2)cc(OC)c1OC,35.5µM*,-10.7,9.2,-0.6%,8.2,-1.3,3.6
CCC(=O)NCc1ccc2[nH]c(C)cc2c1,-6.2%,-1.1,4.0,-1.3%,-2.6,1.4,3.3

# Rewritten with two lines to a compound: entries from further up
# The line under a structure holds: Sfp inh	D2 PAM	Six1-Eya2 inh	PINK1 expr mod	TRPV1 potentiator	D2 ag	CtBP-E1A inh
- Cc1ccc2nc(-c3ccc(NC(=O)CN4CCN(C(=O)c5ccco5)CC4)cc3)sc2c1
 : -27.4%	?	-20.7	.	5.1	?	-1.0
- O=C(CSc1ncccn1)n1c2c(c3ccccc31)CCCC2
 : ?	-13.8	-0.9	-0.8%[38.3 µM]	19.5	-2.6	2.1
- COc1cccc(N2CCN(C(=O)/C=C/c3ccco3)CC2)c1
 : 8.91µM*	-1.5	-9.9	-0.2%	-5.5	-0.7	-20.1
- O=S(=O)(c1ccccc1)N1CCN(S(=O)(=O)c2ccccc2)C1
 : -15.3%	-20.1	4.7	-0.7%	1.4	0.4	3.3
